Compound activity (PubChem BioAssay)
HNF4A DNA FP: change in binding of human HNF4 alpha to DNA; P41235; HNF4a-FITC DNA binding, fluorescence polarization, 1 h; activity change, % at 10 µM; actives 0.3% (n = 360,000); in the data active = activity change above about 30%, passing the limit was not always enough;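 note: controls were the assay level and a saturating level of protein; the project sought stronger binding though the title names inhibitors; some compounds called inactive have numbers as strong as hits; positive values seem to mean higher polarization but the record does not say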
Ecoli growth: blocks Escherichia coli growth | OD600, 23 h; stronger effect = lower value | OD600 absorbance (concentration not given with the values) | actives 0.21% (n = 330,000);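 active = OD600 absorbance below the run mean of sample wells minus 3.6 SD, in any replicate, cut at about 0.56 in these data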;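 note: stock transfer was 300 nL into about 60 µL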
ALR H2O2 inh: human ALR oxidase inhibition via reduced H2O2. purified ALR, DTT oxidation, H2O2 HRP-luminol luminescence. inhibition, % (no concentration beside the values). actives 3.8% (n = 290,000). AID 485317;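 active = mean and each replicate at 75% or more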;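 note: stock transfer was 7.5 nL into about 7.5 µL; 0% = neutral wells and 100% = wells with inactivated enzyme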
Target sequence (P55789 whole entry, looked up): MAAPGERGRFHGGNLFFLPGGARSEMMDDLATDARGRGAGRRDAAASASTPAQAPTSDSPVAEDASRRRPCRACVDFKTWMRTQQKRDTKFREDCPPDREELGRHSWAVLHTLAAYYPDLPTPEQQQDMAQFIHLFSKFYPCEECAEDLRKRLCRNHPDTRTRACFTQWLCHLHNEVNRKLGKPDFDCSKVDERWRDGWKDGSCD
rRNA inh HTS: inhibitors of bacterial rRNA selective over humanized ribosomes. E. coli WT GFP vs humanized-ribosome RFP mutants, fluorescence, 24 h; stronger effect = lower value; DMSO median 0, no signal -100. GFP signal change (wild-type ribosome), % (test concentration not listed). actives 1.6% (n = 350,000);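 active = significant combined selectivity score with lowered wild-type GFP, culture density cut under 30%, mutant RFP and density less affected; inactive = any of these conditions unmet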; note: one replicate is shown; some compounds called inactive have numbers as strong as hits
UCH37 inh: human UCH37 deubiquitinating enzyme inhibition; inhibition, % (test concentration not listed); actives 0.33% (n = 330,000); purified proteasome/UCH37, Ub-AMC cleavage fluorescence; Q9Y5K5;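 active = mean of two replicates above 20%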;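 note: 0% = compound-free wells with enzyme and 100% = wells lacking proteasome; stock transfer was 100 nL into about 20 µL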
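system = Proteasome-associated human UCH37 deubiquitinase | amount = 0.15 nM proteasome as dispensed | medium = pH 7.4 Tris-HCl (50 mM) with ovalbumin, ATP-MgCl2, DTT | incubation = 30 min preincubation with enzyme, 25 min cleavage at room temperature | detection = AMC fluorescence 355/460 nm | read-out basis = percent inhibition | controls = no-proteasome and no-compound wells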
FGF22 binding: FGF22 (human) thermal shift binding; Q9HCT0; recombinant FGF22 thermal shift, SYPRO orange fluorescence; percent of sucrose octasulfate shift, DMSO zero; calls only at 9.99 µM; actives 1.5% (n = 340,000); AID 651658;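 active = melting point raised past a set limit in the mean and every replicate; three in four hits are not shown here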
Target sequence (Q9HCT0 whole entry, looked up): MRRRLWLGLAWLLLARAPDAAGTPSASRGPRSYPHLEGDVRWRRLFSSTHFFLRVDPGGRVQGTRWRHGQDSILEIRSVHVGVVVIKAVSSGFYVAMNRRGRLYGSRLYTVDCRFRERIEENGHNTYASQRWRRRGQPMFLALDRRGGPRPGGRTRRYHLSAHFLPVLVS
B2AR ag: agonists of human beta-2 adrenergic receptor inducing internalization; Am2.2-beta2AR cells, FAP receptor internalization, flow cytometry; reference of the scale not given here; response, % (concentration not given with the values); actives 0.43% (n = 340,000); AID 504454;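 active = response above a set limit, near 3 SD of response in nonfluorescent compounds, cut at about 42% in these data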;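 note: stock transfer was 100 nL into about 11 µL; a reference agonist was the positive control; negative values mostly stem from fluorescent compounds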
Target sequence (P07550 whole entry, looked up): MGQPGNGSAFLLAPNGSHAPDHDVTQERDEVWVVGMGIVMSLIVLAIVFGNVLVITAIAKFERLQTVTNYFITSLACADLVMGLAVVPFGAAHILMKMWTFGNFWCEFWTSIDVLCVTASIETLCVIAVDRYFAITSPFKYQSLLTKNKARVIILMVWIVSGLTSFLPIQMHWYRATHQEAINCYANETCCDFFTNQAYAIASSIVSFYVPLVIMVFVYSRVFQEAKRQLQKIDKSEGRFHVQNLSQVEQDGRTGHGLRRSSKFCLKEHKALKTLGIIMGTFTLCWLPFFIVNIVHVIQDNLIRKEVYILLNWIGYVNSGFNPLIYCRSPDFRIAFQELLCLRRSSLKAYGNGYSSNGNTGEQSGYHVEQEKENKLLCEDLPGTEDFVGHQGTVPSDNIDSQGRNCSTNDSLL
rRNA inh HTS OD600: further read-out of rRNA inh HTS, marked with its call; OD600 change, %; measured here: OD600 growth;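 optical density of the mix in the first replicate; 0 = DMSO median and -100 = no signal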
rRNA inh HTS RFP: second read-out of rRNA inh HTS, no call of its own (marks repeat the call); RFP signal change, %; measured here: RFP humanized mutant strains;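 first replicate; 0 = DMSO median and -100 = no signal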
An asterisk follows results filed as active; i = inactive; / = not tested or not shown; & = joins results of further samples.

SMILES	HNF4A DNA FP	Ecoli growth	ALR H2O2 inh	rRNA inh HTS	rRNA inh HTS OD600	rRNA inh HTS RFP	UCH37 inh	FGF22 binding	B2AR ag
Cc1cc(NC(=O)COC(=O)C2=COCCO2)c([N+](=O)[O-])cc1C	0.1	0.689	47.3	1.5	3.5	-6.1	0.5	i	-2.6
CCCCCCc1ccc(N2C[C@H](CCCCC)[C@@H](CC(=O)NCc3ccc(OC)cc3)C2=O)cc1	6.0	/	-4.5	12.7	14.2	-0.8	4.3	i	3.8
O=Cc1ccccc1OCCOc1ccc([N+](=O)[O-])cc1	2.4	0.668	8.4	3.1	6.4	-2.5	5.3	i	-12.2
COc1ccc(C(=O)N/N=C2\CCc3ccccc32)cc1OC	1.9	/	-3.2	4.6	9.4	-1.5	/	i	-2.4
CC(C)[C@H](NC(=O)OCc1ccccc1)C(=O)OCC(=O)N1C(C)CCCC1C (stereo partly specified)	-2.9	0.685	/	0.3	-11.6	0.3	3.3	i	-5.9
COc1ccc(-c2ccc(C(=O)Nc3cccc(C(F)(F)F)c3)c3occc23)c(C)c1	-0.1	/	/	4.9	7.3	-3.4	/	i	/
CCOc1ccccc1N1CC(C(=O)N2CCc3ccccc3C2)CC1=O (stereo unspecified)	/	0.751	-7.5	/	/	/	5.1	/	-5.8
N#CCCN(C(=O)CO/N=C/c1cccc([N+](=O)[O-])c1)c1ccccc1	-1.2	/	-5.7	5.8	2.7	-1.1	/	i	3.9
O=C(Nc1nnc(-c2cccs2)s1)c1cccc(F)c1	6.9	0.67	/	3.7	6.8	2.0	-6.2	i	0.8
CCOC(=O)CSc1ccc2nnc(CCNS(=O)(=O)c3ccccc3)n2n1	0.6	0.709	-0.9	16.4	11.7	3.8	0.8	i	11.0
Cc1ccc(NC(=S)N2CCCC2)cc1	-2.1	0.708	-1.1	5.9	3.9	4.2	8.4	i	9.5
Cc1c(CN2CCC(CO)(CCOc3ccccc3)CC2)c(=O)n(-c2ccccc2)n1C	0.0	0.66	-4.8	5.1	2.2	-3.7	5.3	i	-11.1
C=CCC12C=C(OC)C(=O)OC(OC)(C1O)[C@H](c1ccc3c(c1)OCO3)[C@H]2C (stereo partly specified)	6.0	0.713	-9.3	-2.8	-3.2	-9.2	2.3	i	2.6
CN(CCO)c1nc(N)c(C#N)c(CC#N)c1C#N	-3.0	0.652	25.2	8.8	4.0	6.1	2.5	i	4.4
COc1ccc(NC(=O)NCCN2CCc3ccccc3C2)cc1	-3.1	0.782	-12.2	/	/	/	6.1	/	11.5
COC(=O)Nc1ccc(S(=O)(=O)N2CCCCCC2)cc1	-3.1	0.699	-2.0	/	/	/	-1.1	/	-3.9
COc1ccc(NC(=O)COC(=O)/C=C/C(=O)OCC(=O)Nc2ccc(OC)c(Cl)c2)cc1Cl	2.8	0.635	0.1	/	/	/	8.3	/	4.6
CC(C)COC(=O)Nc1ccccc1C(=O)N1CCOCC1	-0.5	0.706	-6.5	/	/	/	0.3	/	2.0
CCOc1ccc(Cl)cc1S(=O)(=O)N1CCCC1	3.1	0.685	-19.4	/	/	/	2.8	/	3.2
Cc1ccc2ccccc2c1NC(=O)c1ccco1	-1.8	0.654	-10.9	5.4	9.9	0.0	3.6	i	3.1
O=C(Nc1ccc2c(c1)OCO2)c1cncc(Br)c1	1.6	0.66	-7.7	/	/	/	0.5	/	3.2
COc1ccccc1C1CC(c2ccc(C)cc2)Nc2ncnn21 (stereo unspecified)	3.5	0.678	-2.4	/	/	/	1.2	/	5.6
O=C(CCn1cccc1)NC1CCCc2ccccc21 (stereo unspecified)	-2.2	0.672	/	/	/	/	-1.5	/	-5.8
Cc1ccccc1NCN1C(=O)C2CCC(C)(C1=O)C2(C)C (stereo unspecified)	5.8	0.704	32.0	2.5	0.1	0.0	4.5	i	13.4
O=C(NCc1ccncc1)Nc1cccc([N+](=O)[O-])c1	0.4	0.683	-0.4	/	/	/	0.0	/	2.0
CC(C)N1CCC1(C)C(=O)Nc1ccc2scnc2c1 (stereo unspecified)	-0.3	/	/	10.9	9.7	0.9	/	i	/
Cc1nnc(NC(=O)CSc2nc3[nH]ncc3c(=O)[nH]2)s1	1.1	0.719	36.2	10.6	6.8	1.9	2.2	i	3.1
COc1ccc(S(=O)(=O)N2CCN(C(=O)c3cc(-c4ccc(C)cc4)n[nH]3)CC2)cc1	4.7	0.727	1.6	0.3	3.2	2.3	2.3	i	-0.8
Oc1ccc(C[C@H]2CNC(=S)N2CC2CCCN2C[C@H](Cc2ccc(O)cc2)N2C[C@H](Cc3ccccc3)N(CC3CCCCCC3)C2=S)cc1 (stereo partly specified)	-0.5	/	/	17.1	5.2	10.5	/	i	20.1
O=C(COC(=O)c1ncc(Cl)c(Cl)c1Cl)NC1CCS(=O)(=O)C1 (stereo unspecified)	-1.3	0.706	2.2	3.6	11.5	-1.4	-0.4	i	6.1
COC(=O)CSc1n[nH]c(-c2ccncc2)n1	-1.6	0.706	-3.4	/	/	/	4.2	/	5.8
CCOC(=O)c1noc(C)c1C(=O)Nc1cccc(F)c1	-0.6	0.795	1.0	/	/	/	4.1	/	-6.5
O=C(CCc1ccccc1)N/N=C/c1cc(Br)ccc1O	-0.6	/	0.5	-15.6*	5.2*	-1.5*	/	i	-0.5
O=C1c2ccccc2-c2nc3ccccc3n21	1.4&1.0	0.666&0.748	0.7&-5.3	21.5	4.6	-0.4	4.2&-4.0	i	12.9&5.2
CCCCN1CN=C(Nc2nc3ccccc3o2)NC1	-0.1	0.725	0.8	/	/	/	4.8	/	1.6
C=C(C)C(=O)Nc1cccc(C2=NOC3(C2)C[C@H](C(N)=O)N(C(=O)CC)C3)c1 (stereo partly specified)	-67.9	/	2.2	/	/	/	0.2	/	-2.1
N/C(=N\N=C\c1ccc(O)c(O)c1)c1nonc1N	-2.4	/	31.6	15.4	12.3	3.6	/	i	-0.5
COCc1c(C(=O)NCC(c2ccco2)N2CCCC2)oc2ccccc12 (stereo unspecified)	4.7	/	/	3.9	6.0	1.3	/	i	/
CCOc1cc(C)c(S(=O)(=O)N2CCCC2)cc1C	0.8	0.717	/	/	/	/	4.3	/	-2.5
CCCn1c(N)c(C(=O)CSc2nc3ccccc3c(=O)n2-c2ccc(OC)cc2)c(=O)[nH]c1=O	-0.4	0.65	-6.1	9.4	9.9	1.6	0.8	i	11.1
Cc1cc(O)c(C(=O)/C=C/c2ccccc2O)c(=O)o1	3.4	0.666	-6.0	4.8	1.4	2.8	0.7	i	14.2
O=C(Nc1cccc(Cl)c1)c1nc[nH]c1C(=O)N1CCc2ccccc2C1	-1.4	0.685	-0.2	12.3	19.1	8.4	-0.9	i	-1.6
COc1cc(/C=C2/NC(=O)NC2=O)ccc1OCC(=O)Nc1ccc(F)cc1	3.1	0.717	-5.6	3.5	8.9	2.5	-27.8	i	2.1
Cn1c(=N)n(CC(=O)c2ccc(Cl)c(Cl)c2)c2ccccc21	-0.5	/	-1.1	3.4	3.6	5.9	/	i	4.2
O=Cc1ccccc1OCCOc1ccccc1C=O	2.3	0.736	0.3	18.1	-3.1	2.6	2.7	i	12.5
Cc1nc(NC(=O)c2ccncc2)sc1C(=O)N(C)C	2.4	0.724	1.8	1.6	-0.3	2.1	6.9	i	-1.6
CCOC(=O)N1CCN(c2ccc(Cl)c(Cl)c2)CC1	-5.2	0.7	-4.3	/	/	/	4.2	/	0.3
COc1ccc(Oc2nc3ccccc3n3cccc23)cc1	0.6	0.812	/	/	/	/	2.0	/	-6.2
Cc1cccc(CNC(=O)c2ccccc2N)c1	25.9	0.691	-2.5	/	/	/	-91.2	/	3.3
Cc1ccc(Nc2nnc(SCC(=O)NCC3CCCO3)s2)cc1C (stereo unspecified)	-0.6	0.612	40.4	-3.3	-3.6	-3.3	1.2	i	-2.3
O=c1c(Br)c(N2CCCCC2)cnn1-c1ccccc1	-2.2	0.673	-1.9	22.4	14.4	1.0	3.8	i	-7.0
Cc1ccc(Cl)cc1NC(=O)N(C)CCO	0.2	0.631	-0.5	-22.3	-37.2	-9.9	0.2	i	-15.9
COc1cc(OC)cc(-c2c(Sc3ccccc3)c3cc(-c4ccc(OC)nc4)ccc3n2C)c1	-1.6	/	/	9.5	27.0	-2.7	/	i	/
CCCn1c(SCC(=O)Nc2nnc(CC)s2)nnc1-c1ccncc1	-1.2	0.685	-2.9	9.5	7.6	0.4	5.2	i	-2.7
CC(C)C(C(=O)Nc1ccc(S(N)(=O)=O)cc1)N1C(=O)c2ccccc2C1=O (stereo unspecified)	-4.0	0.666	-13.3	12.4	11.6	0.1	4.2	i	-5.8
O=C(Nc1ccccc1)N1CC=C(c2ccc(F)cc2)CC1	-0.9	0.723	-15.5	/	/	/	0.5	/	-4.8
COc1ccccc1C(O)Cc1nc2ccccc2n1C (stereo unspecified)	4.1	/	-20.8	/	/	/	/	/	3.1
CN(Cc1ccc(F)cc1)C(=O)C(c1ccccc1)c1ccccc1	0.6	0.679	0.0	-24.2	-47.5	-8.9	6.0	i	3.0
O=C1NNC(c2ccccc2)=N/C1=C\c1ccco1	-1.9	0.665	3.8	16.6	10.9	4.3	5.7	/	0.8
O=C(c1ccc2c3c(cccc13)CC2)C1CCCN(C(=O)c2cccnc2)C1 (stereo unspecified)	0.7	0.665	17.3	-24.4	-25.8	-3.3	-33.2	i	-2.7

Part of the list above, showing only B2AR ag and FGF22 binding:
SMILES | B2AR ag | FGF22 binding
Cc1cccc(CNC(=O)c2ccccc2N)c1 | 3.3 | /
Cc1ccc(Nc2nnc(SCC(=O)NCC3CCCO3)s2)cc1C (stereo unspecified) | -2.3 | i
O=c1c(Br)c(N2CCCCC2)cnn1-c1ccccc1 | -7.0 | i

The list goes on:
SMILES	HNF4A DNA FP	Ecoli growth	ALR H2O2 inh	rRNA inh HTS	rRNA inh HTS OD600	rRNA inh HTS RFP	UCH37 inh	FGF22 binding	B2AR ag
O=c1c2c(-c3cccc([N+](=O)[O-])c3)ccnc2[nH]n1-c1ccccc1	0.7	0.64	-5.5	5.2	10.9	-1.0	1.9	i	3.1
O=C(CN1C(=O)NC2(CCCCCCC2)C1=O)NC1CCCc2ccccc21 (stereo unspecified)	-2.4	0.684	/	/	/	/	2.6	/	3.1
Cc1cc(OCc2nnc(SCC(=O)OC3CCCCC3)o2)ccc1Cl	4.8	0.713	-1.9	/	/	/	0.3	/	-6.2
Cc1cc(/C([O-])=C(/C(=S)Nc2ccc(F)cc2)[n+]2ccccc2)c(C)n1Cc1ccccc1Cl	5.8	/	/	6.0	11.8	4.9	/	i	9.1
CC[C@]12c3[nH]c4cc(CCC(=O)N(C)C)ccc4c3CCN1C(=O)[C@@H](CC(=O)NCCCn1ccnc1)C[C@@H]2C(=O)N1CCN(C(=O)c2ccco2)CC1	0.3	0.652	/	28.7	23.4	2.9	-0.4	i	10.5
CSc1ccc(CN(C)C(=O)CNC(=O)CNS(=O)(=O)c2ccc(C)c(C)c2)cc1	3.2	0.722	-4.2	-8.3	-6.4	1.4	0.9	i	8.7
Cc1ccc(CNC(=O)CCNS(=O)(=O)c2ccc(Br)s2)cc1	2.6	0.674	-6.0	-15.9	-1.9	0.5	4.0	i	0.9
Cc1ccc(CNC(=O)Cc2ccc(NC3=NC4CS(=O)(=O)CC4S3)cc2)cc1 (stereo unspecified)	-0.7	0.697	-1.1	4.8	10.2	0.1	-0.8	i	5.9

The list is partial; the hit share may differ from the screen's.
